# HIV TAR-Tat – TAR RNA-Tat peptide displacers, HIV-1, primary screen, biochemical, FRET, FAM/TAMRA-labeled Tat | z-score (test concentration not listed) | HIV-1 TAR RNA, Tat peptide displacement FRET; hits give high values | 100,000 tested, 0.6% active;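 note: score is relative to mean and SD of negative controls; some compounds called inactive have numbers as strong as hits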
# CDC25B-CDK2 inh – primary biochemical HTRF screen for blockers of M-phase inducer phosphatase 2 binding to CDK2/cyclin A; 94,000 tested, 0.72% active; HTRF CDC25B-CDK2/CyclinA binding, anti-His/anti-Flag; hits give high values; AID 1259370, 2018; P30305+P24941; z-score (test concentration not listed);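 note: score is relative to mean and SD of negative controls; strong numbers were not always called active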
# An asterisk follows results filed as active; . = not tested or not shown.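 Rule for the calls: active = z-score from 3 up in half or more of its runs; inactive = the rest.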
smiles	HIV TAR-Tat	CDC25B-CDK2 inh
COc1cc(C)c(C)cc1S(=O)(=O)N1CCc2cc3ccccc3nc21	-0.64	0.16
Cc1cccc(-c2nc3c(c(=O)[nH]2)Cc2ccccc2O3)c1	2.2	-0.69
O=C1c2ccccc2-c2onc3c(N4CCN(c5ccccc5)CC4)cc(NCc4ccco4)c1c23	-4.9	1.1
Cc1cc(=O)n2nc(-c3cccs3)nc2n1CC(=O)N1CCCCC1	0.07	-1.9
O=C(CCC(=O)OCC(F)(F)C(F)F)OCC(Cl)=C(Cl)Cl	.	-0.22
Cc1sc(-n2cccc2CNCCCN(C)c2ccccc2)c(C(=O)O)c1C	0.97	.
Cc1nn(-c2ccccc2)nc1C(=O)Nc1ccc2[nH]ncc2c1	.	-1.1
O=C(c1cc2c(Cl)nc3ccccc3c2s1)N(Cc1ccco1)CC1CCCO1 (stereo unspecified)	.	-0.69
COc1ccc(N2COC(C)c3nc4ccccc4n3C2)cc1 (stereo unspecified)	.	1
CC1=C(C(=O)OCC2CCCO2)C(c2ccccc2)C2=C(CCCC2=O)N1 (stereo unspecified)	.	-2.3
Cc1nc(-c2nnc(SCc3ccccc3Cl)o2)cs1	.	-3
CCOC(=O)CSC(=S)NC(C)c1ccccc1 (stereo unspecified)	.	-0.93
COc1ccc(-c2ccc(=O)[nH]n2)cc1F	0.12	0.03
CCOC(=O)c1ccc(-n2nnc3c(sc4nc(C)cc(COC)c43)c2=O)cc1	0.04	-1.7
COCCNC(=O)Cn1ncn2c(cc3sc(C)cc32)c1=O	.	-0.42
CC(=O)Oc1ccc2nc(CN3C(=O)c4ccccc4C3=O)oc(=O)c2c1	.	0.08
Cc1cc(C)n(CCc2nc3c4ccccc4nc(N4CCN(c5ccccc5)CC4)n3n2)n1	0.24	-1.7
COc1ccc(OC(=O)c2ccc3snnc3c2)cc1	.	-1.4
CCCCCOC(=O)C1=C(C)Nc2nnnn2C1c1ccccc1Br (stereo unspecified)	0.18	.
CN(C(=O)C1=CC(c2ccc3c(c2)OCO3)=NS(=O)(=O)N1C)c1ccccc1	1.6	-1.3
Cn1cnnc1Sc1nc2c(c(=O)n(C)c(=O)n2C)n1Cc1cccc(Cl)c1	1.3	-0.2
Cc1n[nH]c(C)c1C(=O)CC1(O)C(=O)N(Cc2ccccc2)c2ccc(Br)cc21 (stereo unspecified)	-1.4	-2.3
N/C(=N\N=C\c1ccccc1)N/N=C/c1ccccc1	.	0.44
CC1CCN(C(=O)CSc2nc(-c3cccc(F)c3)nc3cc(=O)[nH]n23)CC1	0.73	.
C=CCSc1nnc2c(n1)OC(c1ccccc1OCC(=O)O)Nc1ccccc1-2 (stereo unspecified)	0.7	-1.7
Cc1ccc(-n2c(N)c(Br)c(=O)[nH]c2=O)cc1	-0.32	-0.06
CC1O[C@@H](OC2/C=C/C=C/C=C/C=C/C[C@@H](C)OC(=O)/C=C/[C@@H]3O[C@H]3C[C@@H](O)C[C@@]3(O)C[C@@H](O)[C@H](C(=O)O)[C@@H](C2)O3)[C@H](O)C(N)[C@@H]1O (stereo partly specified)	1.2	.
CC1=NS(=O)(=O)c2cc(C(=O)NC3CCCCC3)ccc2N1CC(C)C	1.8	.
CC(C)N(C(=O)c1cc(S(=O)(=O)N2CCCC2)cn1C)C1CCCCC1	1.3	.
Cc1ccc2c(n1)sc1c(=O)n(-c3cccc(Cl)c3)nnc12	-1.4	1.6
CC(=O)Nc1cccc(OCc2cc(=O)n3nc(C4CC4)sc3n2)c1	1.6	0.7
O=C1c2ccc3c4c(ccc(c24)C(=O)N1c1cccc(O)c1)C(=O)N(c1cccc(O)c1)C3=O	3.9	-0.92
CCOc1ccc2c(c1)c(=O)c(S(=O)(=O)c1ccc(Cl)cc1)cn2CC	1.1	-1.8
c1ccc(-c2nnc3sc(CN4CCc5ccccc5C4)cn23)cc1	0.8	-0.64
Nc1ccc(C(=O)OCc2nc3cc4ccccc4cc3[nH]2)cc1	0.16	-2.4
COc1ccc(OC)c(S(=O)(=O)Nc2ccc(N3CCCS3(=O)=O)cc2)c1	0.9	.
CC1=C(C(=O)Nc2ccccc2)C(c2ccc(Br)cc2)NC(=O)N1 (stereo unspecified)	.	0.09
CC(C)NC(=O)Cn1ncn2c(cc3cc(F)ccc32)c1=O	-0.46	-0.75
CC(=O)N1CCc2c(sc3nc(SC(C)C)n(-c4ccccc4)c(=O)c23)C1	0.23	-0.5
Cc1c(C(=O)NC2CCCCC2)oc2ccc(S(=O)(=O)N(C)C3CCCCC3)cc12	.	-0.66
Nc1ncnc2c1ncn2CC(O)CO (stereo unspecified)	0.78	1.3
CCCCc1c(C)nc(N2CCN(c3ccccc3)CC2)[nH]c1=O	-0.35	.
Cc1cc(C)c2c(CC(=O)N(Cc3cccs3)C3CCS(=O)(=O)C3)coc2c1 (stereo unspecified)	1.4	-2.7
COCc1cnc2c(c1SCC(=O)Nc1cc(C)on1)c(=O)n(C)c(=O)n2C	1.6	.
COC(=O)C1=C(Nc2ccc(OS(=O)(=O)c3ccc(F)cc3F)cc2)CSC1	.	0.68
CCOC(=O)C1=C(C)NC(C)=C(C(=O)OC)C1c1ccco1 (stereo unspecified)	.	-1.8
CN(CC(=O)NCC1CCCO1)S(=O)(=O)c1ccc2c(c1)c(=O)n(C)c(=O)n2C (stereo unspecified)	-1.6	-1.1
Cc1nc(-c2ccccc2)c(-c2ccccc2)s1	1.7	-0.54
COc1ccc(-c2nnc3ccc(SCc4cccc(F)c4)nn23)cc1OC	.	1.3
CCCN1C[C@H](CSC)C[C@@H]2c3cccc4[nH]cc(c34)C[C@H]21	-1.9	0.49

# Record cards, from the list above. Order of screens: HIV TAR-Tat | CDC25B-CDK2 inh
# Results for `CC1CCN(C(=O)CSc2nc(-c3cccc(F)c3)nc3cc(=O)[nH]n23)CC1` = 0.73 | .
# Results for `COc1ccc(OC)c(S(=O)(=O)Nc2ccc(N3CCCS3(=O)=O)cc2)c1` = 0.9 | .
# Results for `Cc1cccc(-c2nc3c(c(=O)[nH]2)Cc2ccccc2O3)c1` = 2.2 | -0.69
# Results for `O=C(CCC(=O)OCC(F)(F)C(F)F)OCC(Cl)=C(Cl)Cl` = . | -0.22

# The listing picks up with the 2 entries that preceded the break.
smiles	HIV TAR-Tat	CDC25B-CDK2 inh
COc1ccc(-c2nnc3ccc(SCc4cccc(F)c4)nn23)cc1OC	.	1.3
CCCN1C[C@H](CSC)C[C@@H]2c3cccc4[nH]cc(c34)C[C@H]21	-1.9	0.49
CC(C)COc1ccc(-c2n[nH]c(=O)c(Cc3ccc(Br)cc3)n2)cc1	1.5	.
CCCc1cc2c(=O)c(-c3ccc(C(=O)OCC)o3)c(C)oc2cc1OC	0.37	-1.5
CCOc1ccc(OC(=O)c2sc3ccccc3c2N)cc1	-0.22	.
COc1ccccc1CNc1sc(S(C)(=O)=O)nc1S(=O)(=O)c1ccc(Cl)cc1	0.3	-1.8
COc1ccc(OC)c(NC(=O)CSC2=NCCS2)c1	-1.4	-1.3
CCCCNC(=O)c1cnc2sc(N3CCCC3)nn2c1=O	1.2	.
Cc1cc(-c2ccc(C)c(S(=O)(=O)NCCCN3CCCC3=O)c2)on1	1.1	.
Cc1cc(C)n2ncc(C(=O)Nc3ccc(O)cc3)c2n1	-0.16	0.53
Cc1c(NS(C)(=O)=O)cccc1-c1nc2ccccc2s1	1.3	-1.2
CCOC(=O)C(=CNc1nc(-c2ccc(Cl)cc2)cs1)C(=O)OCC	.	-2.5
O=C(NCc1ccc2c(c1)OCO2)c1ccc(-n2ccc3ccccc32)s1	0.62	.
Cn1cnc(S(=O)(=O)N2CCN(c3ncccn3)CC2)c1	2.4	.
O=S(=O)(CCO/N=C/c1cccs1)c1ccc(Cl)cc1	.	0.46
O=C1COc2cc(S(=O)(=O)CCC(=O)N3CCc4ccccc43)c(Cl)cc2N1	3.1	.
Cc1cc(C)nc(NS(=O)(=O)c2ccc(NC(=O)c3nn(-c4ccc(F)cc4)ccc3=O)cc2)n1	1.2	-1.1
CC(C)(C)c1nnc(Nc2cccc(F)c2)[nH]c1=O	.	1.1
CN(CC1COc2ccccc2O1)C(=O)Cn1cnc(S(=O)(=O)N2CCCCC2)c1 (stereo unspecified)	1.2	.
Cc1ccc(CNC(=O)NCc2noc3ccc(C)cc23)cc1	1.7	.
CCOC(=O)c1cc(Sc2ccccc2N)cc(C(=O)OCC)n1	.	-0.79
CCOc1ccc(OCC)c(Nc2nc3ccccc3n3nnnc23)c1	-1.8	-1.4
COc1cc(-c2ccno2)ccc1S(=O)(=O)N1CCc2ccccc2C1	0.6	.
Cc1ccc(N2CC(C(=O)Nc3ccc4c(c3)sc(=O)n4C)CC2=O)cc1 (stereo unspecified)	0.68	.
CC1CCN(Cc2nc(-c3ccc(Cl)cc3)no2)CC1	2.3	-1.7
COc1ccc(C(=O)NC(=Nc2c(C)cccc2C)SC)cc1	.	0.09
CC(C)S(=O)(=O)c1cnc(-c2cccnc2)nc1N	.	-1.2

# Next entries follow:
structure	HIV TAR-Tat	CDC25B-CDK2 inh
CCCCCc1cnc(-c2ccc(C#N)cc2)nc1	.	-2.5
O=C(Cn1cc2c(n1)CCCCC2)NCCN1CCOCC1	.	-1.4
CCOC(=O)c1c(C)c(C(=O)NC2CCCC2)c(C)n1CC	.	-0.93
COCc1cc(C)nc2sc3c(c12)NC(c1ccc(Br)cc1)NC3=O (stereo unspecified)	-0.63	-2.9
CN1C(=O)c2ccccc2C(C(=O)NCCN2CCOCC2)C1c1cccs1 (stereo unspecified)	-0.01	-0.76
CC1CCN(S(=O)(=O)c2ccc(Cc3ccc(S(=O)(=O)N4CCC(C)CC4)cc3)cc2)CC1	2.5	-1.3
O=C1c2ccccc2-c2nc3ncnn3c(-c3ccccc3Cl)c21	2.2	-1.9
CCC(C)(C(=O)NC1CCCCC1)N(Cc1cccs1)C(=O)c1ccccn1 (stereo unspecified)	.	-0.37
CCOC(=O)Sc1ccc2ccccc2c1	.	-0.86
Cc1ccc(-c2nnc3c4ccccc4c(C)nn23)cc1S(=O)(=O)NC(C)C	2.3	-0.69
NC(=O)C1CCN(c2nc3ccccc3c3nc(-c4cccnc4)nn23)CC1	-2	-0.96
CC1CCc2c(sc3ncn(CC(=O)N/N=C/c4ccco4)c(=O)c23)C1 (stereo unspecified)	.	-2.3
CCOC(=O)COc1cc2c(C(=O)OCC)c(C)oc2cc1Br	.	-3.5
COc1ccc(Nc2c(-c3ccsc3)nc3cnccn23)cc1OC	1.8	1.4
CC(Oc1ccc(F)cc1)C(=O)Nc1nc(-c2cccs2)ns1 (stereo unspecified)	1.2	0.17
CC1CCC(NC(=O)C2CCCN2S(=O)(=O)c2ccc3c(c2)n(C)c(=O)c(=O)n3C)CC1 (stereo unspecified)	.	-1.9
O=c1[nH][nH]c2nnc(-c3ccccc3)c(-c3ccccc3)c12	.	-2.8
Cc1cc(-c2ccc(C)c(S(=O)(=O)N(CCN3CCOCC3)Cc3ccco3)c2)on1	1.5	.
C=CCNC(=O)c1cnn2c(C(F)(F)F)cc(-c3cccs3)nc12	0.2	.
CCOC(=O)c1c(S(=O)(=O)Nc2cc(OC)ccc2OC)c(C)n(C)c1C	-0.61	.

# Brought forward from above: 4 entries, followed by the next part.
structure	HIV TAR-Tat	CDC25B-CDK2 inh
O=c1[nH][nH]c2nnc(-c3ccccc3)c(-c3ccccc3)c12	.	-2.8
Cc1cc(-c2ccc(C)c(S(=O)(=O)N(CCN3CCOCC3)Cc3ccco3)c2)on1	1.5	.
C=CCNC(=O)c1cnn2c(C(F)(F)F)cc(-c3cccs3)nc12	0.2	.
CCOC(=O)c1c(S(=O)(=O)Nc2cc(OC)ccc2OC)c(C)n(C)c1C	-0.61	.
COc1ccc2cc3c(nc2c1)N(C(=O)C1CC1)CC3	-1.7	-0.34
CCCCSC1=C(C#N)C(=O)NCS1	1.4	1.2
CC1CCCCC1NC(=O)c1cc2ccccc2o1 (stereo unspecified)	-0.48	-1.3
Cc1nn(-c2nc3ccccc3o2)c2c1C(c1ccc(Br)cc1)CC(=O)N2 (stereo unspecified)	0.63	.
CNS(=O)(=O)Cc1ccc([N+](=O)[O-])cc1	.	-0.77
CCOC(=O)c1c(N)c(C#N)c2n1CCCCC2	.	-2
COc1cccc(Cn2cc(C(=O)c3ccccc3)c(=O)c3cc4c(cc32)OCCO4)c1	1.7	1.8
Fc1ccccc1CSc1nc2ccccc2o1	3.2	-2.7
O=C(Cn1ncc2c([nH]c3ccccc32)c1=O)NC1CCCC1	0.05	.
CCc1ccc(Nc2cc(-n3nc(C)cc3C)ncn2)cc1	0.71	1.6
Cc1cc(C)cc(NC(=O)N2c3ccccc3NC3=C(C(=O)CCC3)C2c2ccco2)c1 (stereo unspecified)	1.2	.
CCc1cc2c(N3CCC(C(=O)O)CC3)ncnc2s1	-0.53	-0.92
Cc1ccc(C(C(=O)NC2CCCCC2)N(C(=O)c2cnccn2)c2cccs2)cc1 (stereo unspecified)	0.69	-0.6
CC(C)CCNC(=O)C1c2c(n(C)c3ccccc23)SCC(=O)N1c1ccc2c(c1)OCO2 (stereo unspecified)	2	.
Cc1sc2ncnc(Oc3ccccc3)c2c1C	0.9	.
Cc1ccccc1Cn1c(SCc2ccc(C(=O)O)cc2)nc2ccncc21	1.4	-2
CCc1ccc(-c2cc(C)no2)cc1S(=O)(=O)N1c2ccccc2CC1C (stereo unspecified)	0.3	.
Fc1ccc(N2CCN(c3ncc(C(F)(F)F)cc3Cl)CC2)cc1	-0.58	0.12
Cc1cccc(-c2csc(-c3nc(-c4ccncc4)no3)c2-n2cccc2)c1	1.5	1.3
O=S(=O)(c1ccc(Cl)cc1)c1cnc2cc3c(cc2c1N1CCCCC1)OCCO3	-0.79	-1.6

# Screening results as filed in PubChem.
